Rango release inh: prevents RanGTP from dissociating the Rango-importin beta complex | Biochemical FRET Rango-importin beta, RanGTP-induced dissociation | O95149+P62826 | Potency, µM (top dose mostly 46.1 µM), for inactives: at the top dose activity change, negative = inhibition | 340,000 compounds, 0.071% hits; active means falling FRET ratio curve, often poorly fitted, with flat reads before Ran was added; inconclusive means other falling curves, or compound fluorescence or quenching; inactive means flat or rising ratio curve;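 note: potency is the fitted concentration of half-maximal effect; % of control where 0% means no effect; nearly all actives have a fitted effect of over 45% in size; -100% = wells without RanGTP and RCC1; the record marks most hits as doubtful in a second field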
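FRET read at 45 min, room temperature: inhibitors block the CFP/YFP signal rise when RanGTP (0.6 uM Ran, 2 mM GTP, 0.2 uM RCC1) frees Rango (0.1 uM) from importin beta (0.25 uM). Pre-read after 5 min compound exposure flags interference.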
Rango complex inh: inhibitors of Rango-importin beta complex formation; Potency, µM (top dose mostly 92.2 µM), inactives show at the highest dose inhibition of complex formation; Q14974; Rango CFP/YFP FRET sensor + importin beta, 45 min; 340,000 compounds, 0.031% hits; AID 540263; active = rising FRET ratio curve, often small or poorly fitted; inconclusive = mostly compound fluorescence or quenching in the first reads; inactive = flat curves in all reads;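 note: potency is the fitted concentration of half-maximal effect; 0% = DMSO wells and 100% = buffer wells lacking importin beta; nearly all actives have a fitted effect of over 15% in size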
Target sequence (Q14974 whole entry, looked up): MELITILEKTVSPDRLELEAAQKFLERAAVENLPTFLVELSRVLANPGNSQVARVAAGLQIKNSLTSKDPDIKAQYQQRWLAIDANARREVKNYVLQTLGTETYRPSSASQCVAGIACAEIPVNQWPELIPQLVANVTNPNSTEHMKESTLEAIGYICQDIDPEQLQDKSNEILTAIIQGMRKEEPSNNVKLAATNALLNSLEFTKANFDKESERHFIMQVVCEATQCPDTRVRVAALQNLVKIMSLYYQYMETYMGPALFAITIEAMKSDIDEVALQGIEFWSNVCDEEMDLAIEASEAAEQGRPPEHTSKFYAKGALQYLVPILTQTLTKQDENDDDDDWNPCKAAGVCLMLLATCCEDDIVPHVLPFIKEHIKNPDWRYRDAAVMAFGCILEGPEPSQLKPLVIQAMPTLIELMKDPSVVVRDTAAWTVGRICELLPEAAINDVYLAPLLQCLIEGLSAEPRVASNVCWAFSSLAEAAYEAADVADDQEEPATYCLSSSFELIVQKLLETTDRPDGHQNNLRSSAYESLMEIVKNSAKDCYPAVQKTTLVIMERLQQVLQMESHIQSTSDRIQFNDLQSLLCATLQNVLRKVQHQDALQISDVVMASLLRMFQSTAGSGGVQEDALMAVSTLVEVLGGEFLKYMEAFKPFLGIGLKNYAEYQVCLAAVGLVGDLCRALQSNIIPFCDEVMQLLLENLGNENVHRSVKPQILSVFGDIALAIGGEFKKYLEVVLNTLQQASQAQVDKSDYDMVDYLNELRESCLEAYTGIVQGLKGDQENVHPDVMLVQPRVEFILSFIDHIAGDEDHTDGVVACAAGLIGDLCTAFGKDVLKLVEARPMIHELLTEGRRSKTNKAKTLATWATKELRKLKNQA
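FRET biosensor Rango (snurportin 1 IBB between N-terminal EYFP and C-terminal Cerulean), 50 nM in PBS/1 mM DTT/0.02% Tween-20/0.1% BSA, preincubated 5 min RT with compound; 0.125 microM importin beta added, 45 min RT, CFP/YFP FRET ratio read.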
GLA inh pH 4.5: inhibitors of human alpha-galactosidase A at pH 4.5 | P06280 | purified enzyme, 4-MU-alpha-Gal fluorescence, pH 4.5 | activity change, negative = inhibition, % at 105 µM | 230,000 tested, under 10 active | AID 1467; inconclusive = small, poorly fitted or top-dose-only inhibition, or a rising curve; inactive = flat fitted curve, though single readings scatter; no compound was filed as active;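 note: 0% = full activity with enzyme and -100% = basal without enzyme; dose as in the result columns while the protocol names 77 µM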
miR-21 FLuc: miR-21 reporter, rising signal. HeLa miR-21 FLuc reporter, luciferase, 48 h. Potency, µM (series often up to 38.3 µM), without a hit: at the top dose reporter change, positive = more light. 340,000 tested, under 10 active. AID 2288; active = well fitted rising curve with a large enough effect; inconclusive = small, poorly fitted or top-dose-only effect; inactive = no such curve, though single readings can be large or run the other way;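 note: % of control where 0% means no effect; miR-21 action dims this reporter so a rising signal means less miR-21 action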
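Luminescence from a firefly luciferase reporter carrying a miR-21 binding site downstream, stably expressed under a CMV promoter in HeLa cells that make miR-21 endogenously, reports miRNA modulation after 48 h compound exposure up to approximately 40uM final.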
An asterisk follows results filed as active; ? = inconclusive; · = no result given; & = joins results of further samples; [ ] = another dose, or the depositor's remark. These rows are one share of the data; the hit share may differ from the screen's.

The opening 7 entries, to show the layout:
SMILES	Rango release inh	Rango complex inh	GLA inh pH 4.5	miR-21 FLuc
Cc1ccc(C)c(NC(=O)C2CCCN(S(=O)(=O)c3cccnc3)C2)c1 (configuration not stated)	-8%	8.3%	·	2%
CCOC(=O)C1(Cc2cccc(F)c2)CCN(C(=O)c2cscn2)CC1	1%	-1.1%	8	3%
CN(C)/C(CN1CCCCC1)=C1\N=C(c2ccccc2)OC1=O	-8%	-0.7%	-4	-3%
COc1ccc2oc(=N)c(C(=O)Nc3ccc(Br)cc3)cc2c1	6%	0.0%	·	-6%
COc1ccc(COC(=O)c2cc(S(=O)(=O)N3CCCCC3)ccc2N2CCOCC2)cc1	18%	0.6%	·	·
O=C(CNC(=S)N(Cc1ccccc1)Cc1ccccc1F)NCc1ccccc1	-18%	-2.7%	-11	16%
Cc1ccc(C)c(NC(=O)CCN2CCC(C)CC2)c1	-5%	1.5%	·	-1%

The list itself, from the start:
SMILES	Rango release inh	Rango complex inh	GLA inh pH 4.5	miR-21 FLuc
Cc1ccc(C)c(NC(=O)C2CCCN(S(=O)(=O)c3cccnc3)C2)c1 (configuration not stated)	-8%	8.3%	·	2%
CCOC(=O)C1(Cc2cccc(F)c2)CCN(C(=O)c2cscn2)CC1	1%	-1.1%	8	3%
CN(C)/C(CN1CCCCC1)=C1\N=C(c2ccccc2)OC1=O	-8%	-0.7%	-4	-3%
COc1ccc2oc(=N)c(C(=O)Nc3ccc(Br)cc3)cc2c1	6%	0.0%	·	-6%
COc1ccc(COC(=O)c2cc(S(=O)(=O)N3CCCCC3)ccc2N2CCOCC2)cc1	18%	0.6%	·	·
O=C(CNC(=S)N(Cc1ccccc1)Cc1ccccc1F)NCc1ccccc1	-18%	-2.7%	-11	16%
Cc1ccc(C)c(NC(=O)CCN2CCC(C)CC2)c1	-5%	1.5%	·	-1%
Nc1cccc(CCc2nc3ccccc3[nH]2)c1	4%	6.1%	8	-53%
CC(C)c1ccc(N(CC(=O)N/N=C/c2ccc(OC3CSC3)cc2)S(=O)(=O)c2ccccc2)cc1	9%	-0.2%	-1	-3%
COc1ccc2c(c1)CCc1c(C(=O)NCCc3ccc(OC)c(OC)c3)noc1-2	18%	-1.5%	-13	0%
O=C1CCC/C=C/C[C@@H](CC(=O)N(CCO)Cc2ccccc2)C(=O)NC[C@@H](c2ccccc2)O1	18%	0.0%	·	·
O=C(CNc1ccccc1F)Nc1cc(S(=O)(=O)N2CCCCC2)ccc1Cl	15%	1.5%	·	·
CCc1c(-c2ccccc2)[n+](=O)c2c(n1[O-])CCC2	-1%	1.2%	-3	-3%
COc1ccc(C(CC(=O)O)NC(=O)c2ccco2)cc1 (configuration not stated)	30%	-6.0%	6	-3%
O=C(COC(=O)Cc1ccsc1)Nc1ccccc1Cl	-8%	0.1%	·	·
Cc1ccc(NC(=O)CN(C)C(=O)CSc2nccn2C)cc1	33%	6.8%	·	·
COc1ccc(Cn2nnnc2C(c2cccs2)N2CCOCC2)cc1 (configuration not stated)	-6%	2.5%	5	-4%
O=C(NCC1CCCO1)C1CCC(=O)N1Cc1ccc(F)cc1 (configuration not stated)	0%	3.1%	-2	0%
C=CC[N+](C)(C)C/C(Cl)=C(\Cl)c1ccccc1	-23%	-0.6%	14	-3%
COC(=O)c1c(C(=O)OC)c(-c2ccc(C)cc2)n2c1CCC2	-2%	5.2%	6	-1%
C=C(C)CNC(=S)NNC(=O)c1cc(C)oc1C	1%	-1.6%	3	-7%
Cc1ccc(Nc2c(-c3ccccc3O)nc3cnccn23)cc1	-15%	?	-3[21.1 µM]	1%
COc1ccc(NC(=O)c2ccc3c(SCC(=O)O)c4c(nc3c2)CCCC4)c(OC)c1	-10%	-3.0%	-9	-2%&-9%
O=C(Cc1c(F)cccc1Cl)OCC(=O)N1CCc2ccccc21	-2%	-0.5%	·	·
CCCOc1ccc(C(=O)Nc2nc(C)c(Cc3ccc4c(c3)OCO4)s2)cc1	-15%	0.3%	9	-31%
CC(=O)c1ccc(NC(=O)C2C3CCC(C3)C2C(=O)O)cc1 (configuration not stated)	-4%	-1.1%	·	-12%
CN(C)CCCNS(=O)(=O)c1ccc(Oc2ncc(C(F)(F)F)cc2Cl)cc1	-8%	-4.2%	2	5%
OCCC1CN(CC2CCCCC2)CCN1C1CCCC1 (configuration not stated)	2%	-5.1%	·	-9%
O=C(CCc1nc(-c2ccccc2)no1)NCC1CCCO1 (configuration not stated)	11%	1.2%	-5	-7%
CN1CCN(C(CC(=O)Nc2cccc(O)c2)C(=O)O)CC1 (configuration not stated)	·	·	2	-1%
COc1ccc2nc(SCC(=O)NC3CCCCC3)[nH]c2c1	2%	0.5%	·	1%
CC(C)CCc1noc(CN2CCN(c3ccc(Cl)cn3)CC2)n1	20%	-0.6%	-7	3%
O=C(C1=C(O)C(=O)N(c2ncccn2)C1c1ccc(F)cc1)c1ccco1 (configuration not stated)	-14%	-0.7%	-7	10%
COc1ccc(Cn2c(CCCO)nc3ccccc32)cc1OC	11%	-3.2%	-2	-8%
O=C(NN=C1CCCCCC1)NC1CCCCC1	-5%	0.8%	3	-9%
O=[N+]([O-])c1ccc(OCC(O)CNCCNc2nccc(C(F)(F)F)n2)cc1 (configuration not stated)	14%	-3.0%	-3	-2%
Cc1nn2c(N3CCN(c4ccccn4)CC3)cc(C(C)C)nc2c1-c1ccccc1	-14%	0.1%	-7	-3%
COc1ccccc1N1C(=NC(=O)C2CCCCC2)SC2CS(=O)(=O)CC21 (configuration not stated)	-6%	1.1%	·	-4%
C=CCC(CC(O)COCCC)C(=O)NNC(=S)Nc1ccccc1 (configuration not stated)	6%	0.0%	6	-61%
CC(C)COC(=O)n1c(SCC(=O)N(C)C)nc2ccccc21	8%	12%	1	-18%
COc1ccc(-c2cc(-c3ccc(O)cc3)nc(N)c2C#N)cc1	?	?	·	1%
O=C(Nc1ccc(Cl)cc1)Nc1csc([N+](=O)[O-])c1	-8%	-1.0%	-2	20%
CC(C)(C)c1cc(NC(=O)COC(=O)c2nccnc2N)n(-c2ccccc2)n1	12%	2.4%	·	-3%
O=C(Nc1cccc([N+](=O)[O-])c1)Nc1ccc2c(c1)CCC2	11%	1.6%	·	-25%
CSCCC(NC(=O)c1ccccc1Br)C(=O)NCC(c1ccco1)N1CCCCC1 (configuration not stated)	23%	1.3%	·	·
Cc1ccc(-n2c(C)cc(C=C(C#N)C#N)c2C)cc1	-14%	?	0	-14%
COc1ccc(/C=C(\C#N)C(=O)OCC(=O)Nc2ccc(C(C)(C)C)cc2)cc1	-1%	-0.3%	-5	-12%
CN(C)[C@@H](CO)c1nnc([C@H](CCC(=O)O)NC(=O)C2CCNCC2)o1	8%	7.3%	0	-1%
COc1ccc(NC(=O)Nc2ccc(N3CCOCC3)c3nonc23)c(OC)c1	8%	-2.7%	1	-3%
CC(CNC(=O)C1CCCCC1)NC(=O)C1CCCCC1 (configuration not stated)	6%	-5.4%	0	0%
Cc1ccc(C(=O)CCC(=O)Nc2ccccc2C)c(C)c1	-14%	0.6%	·	-31%
O=C(NCCCCl)C1CC(=O)N(CCc2ccc(F)cc2)C1 (configuration not stated)	-9%	-0.4%	·	-1%
CCOC(=O)c1[nH]c2c(c1-c1ccccc1)C(=O)CC(c1ccc(OC)c(OC)c1)C2 (configuration not stated)	3%	-3.9%	-4	2%
CC1=NN(C(=O)CCc2ccccc2)C(c2ccccc2)C1 (configuration not stated)	-3%	1.0%	2	-14%
O=C(NC1CCCCCC1)C(=S)NCc1ccccc1	-8%	2.8%	2	-47%
Clc1cccc(N2CCN(CCCN3CCN(c4ccccc4)CC3)CC2)c1	9%	0.2%	·	·
Cc1ccc(-c2c(C)sc3nc(CN4CCN(CC(=O)NC5CC5)CC4)[nH]c(=O)c23)cc1	-3%	-3.4%	·	·
O=C(COC(=O)CCN1C(=O)c2cccc([N+](=O)[O-])c2C1=O)NCc1ccccc1	-8%	-1.5%	-3	-1%
Cc1cc(C)c(NC(=O)Cn2nnc(C(=O)NCc3ccc4c(c3)OCO4)c2N)c(C)c1	7%	3.2%	·	0%
CC1(OCON)CCCc2ccccc21 (configuration not stated)	2%	0.3%	·	2%
Other results:
SMILES	Rango release inh	Rango complex inh	GLA inh pH 4.5	miR-21 FLuc
CN(C(=O)c1ccc(NC(=O)Cc2cccc(NC(=O)C3CCCN(C(=O)CCc4ccccc4)C3)c2)cc1)C1CC1 (configuration not stated)	-7%	2.3%	·	·
O=C(CCN1C(=O)C2C3C=CC(C3)C2C1=O)NCCc1ccccc1 (configuration not stated)	9%	-1.2%	4	-14%
CC(CC(=O)N(C)c1c(N)n(Cc2ccccc2)c(=O)[nH]c1=O)c1ccccc1 (configuration not stated)	0%	-3.1%	·	·
COc1ccc(-c2nc3n(n2)C(c2ccccc2Cl)C(C(N)=O)=C(C)N3)cc1 (configuration not stated)	7%	-5.9%	-8	-8%
Cc1ccc(N2C(=O)C3CC3C2=O)cc1 (configuration not stated)	-6%	3.5%	7	4%
COc1ccc(S(=O)(=O)NCC(=O)N(CC(=O)NCc2ccco2)Cc2ccccc2)cc1	7%	4.6%	·	-4%
NC(=O)CC[C@@H]1NC(=O)[C@H](CO)NC(=O)c2cc([N+](=O)[O-])cc(I)c2NCC[C@@H](C(N)=O)NC(=O)[C@H](Cc2ccc(O)cc2)NC1=O	·	·	2	2%
C=CCc1cccc(CNc2cnc3ccccc3c2)c1O	2%	2.8%	·	2%
CN1C(=O)C2(C(C#N)=C(N)Oc3n[nH]c(-c4ccc(Cl)cc4)c32)c2ccccc21 (configuration not stated)	0%	3.3%	2	-1%
CC(=O)Nc1cc(C(=O)N(C)Cc2ccccc2)ccc1S(=O)(=O)c1ccc(C)cc1	-4%	-0.5%	·	-9%
CN(C)/C=C/C(=O)c1ncc(C(F)(F)F)cc1Cl	-5%	0.6%	2	1%
COc1ccc(NC(=O)c2ccc([N+](=O)[O-])s2)c([N+](=O)[O-])c1	-5%	0.5%	2	-11%
CCOCCCNC(=O)C(c1ccc(C)cc1)N(Cc1ccc2c(c1)OCO2)C(=O)c1ccccn1 (configuration not stated)	-1%	-2.9%	-4	4%
O=C1C2C3C=CC(CC3)C2C(=O)N1c1ccc([N+](=O)[O-])cc1 (configuration not stated)	-27%	-0.3%	·	7%
O=C(c1cccs1)N1CCN(S(=O)(=O)c2ccccc2)CC1	-8%	-4.4%	4	-3%
CCN(CC)CCNCC(=O)Nc1ccc(Oc2ccccc2)cc1	14%	-3.3%	-2	-3%
CN(C)CCCNC(=O)CC(c1ccccc1)c1ccccc1O (configuration not stated)	2%	-0.4%	14	-7%
COc1ccc(-n2c(=S)[nH]c3c(oc4ccccc43)c2=O)cc1	-9%	3.8%	4	-8%
O=C(Nc1cn(-c2ccccc2)nc1-c1cccs1)c1ccco1	4%	0.5%	-5	-21%
CCC1=C(C(=O)OC)C(c2cc(OC)ccc2OC)C(C#N)=C(N)O1 (configuration not stated)	0%	5.3%	-6	0%
Cc1nn(-c2ccccn2)c2c1-c1nc(N)ncc1CC2	0%	2.1%	-8	-18%
O=S(=O)(c1ccc(SCc2ccccc2)nc1)N1CCCC1	-1%	2.4%	·	·
CCOC(=O)Nc1nnc(-c2ccc(OC)cc2)s1	5%	0.2%	3	-44%
CSc1ccc(S(=O)(=O)N2CCC(C(=O)N3CCOCC3)CC2)cc1	0%	-1.1%	·	7%
Cc1nn(C2CCS(=O)(=O)C2)c(C)c1CN(C)C(=O)c1cccc(Cl)c1 (configuration not stated)	-15%	4.4%	·	·
Cc1cc(C)cc(N(CC(=O)Nc2ccc(Br)cc2)S(=O)(=O)c2c(C)[nH]c(=O)[nH]c2=O)c1	-27%	-2.7%	·	4%
c1ccc2c(c1)[nH]c1c(NCC3CCCO3)ncnc12 (configuration not stated)	-7%	-4.8%	8	15%
CSc1nc2c(cnn2-c2ccc(C)c(C)c2)c(=O)[nH]1	8%	3.6%	0	-6%

From PubChem
